YopH PTP inh: YopH tyrosine phosphatase inhibitors, primary screen, biochemical, fluorescence Ex485/Em525. YopH tyrosine phosphatase [Yersinia enterocolitica]. 140,000 tested, 0.16% active. inhibition, %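 (about 10 µM by stock and volumes)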. AID 898, 2007;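 active = inhibition of 50% or more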;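 note: controls were vehicle for no effect and minimum signal wells for full effect; inactives centre near -20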
Mtb betalactam: beta-lactam sensitization of Mtb H37Rv, H37Rv; M. tuberculosis H37Rv growth with meropenem, percent inhibition; hits of this screen are not shown here; inhibition, % at 25 µM; 330,000 tested, 0.27% active;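 active = about 74% or more and at least 40 points above the plate without the antibiotic, then above 30% in a dose series; inconclusive = first-round hits that could not be retested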;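 note: growth measured after seven days incubation then overnight dye step; 0% = bacteria only wells and 100% = bacteria with antibiotic; twin plates without the antibiotic show which effects depend on it; some results filed as inactive read as strong as hits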
Arbovirus inh: antivirals against arbovirus infection, primary screen, cell-based, full library, 10K replicate subset; arbovirus infection cell-based antiviral screen; inhibition, % at 10 µM; 200,000 tested, 0.37% active;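 active = inhibition from about 30%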;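 note: bluetongue infection of BSR cells; cell survival read as ATP light after 72 h; 0% = infected wells without compound and 100% = uninfected wells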
RecA intein inh: Mtb RecA intein splicing inhibitors, primary screen, biochemical, fluorescence, HTS. Protein RecA (Mycobacterium tuberculosis (strain ATCC 25618 / H37Rv)), P9WHJ3. cell-free RecA intein splicing. inhibition, %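 (about 9 µM by stock and volumes)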. 290,000 tested, 0.75% active; in the data active = inhibition above about 30%; inconclusive = no clear call, values can overlap the other calls;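 note: 0% = vehicle wells and 100% = reference inhibitor control wells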
Target sequence (P9WHJ3 whole entry, looked up): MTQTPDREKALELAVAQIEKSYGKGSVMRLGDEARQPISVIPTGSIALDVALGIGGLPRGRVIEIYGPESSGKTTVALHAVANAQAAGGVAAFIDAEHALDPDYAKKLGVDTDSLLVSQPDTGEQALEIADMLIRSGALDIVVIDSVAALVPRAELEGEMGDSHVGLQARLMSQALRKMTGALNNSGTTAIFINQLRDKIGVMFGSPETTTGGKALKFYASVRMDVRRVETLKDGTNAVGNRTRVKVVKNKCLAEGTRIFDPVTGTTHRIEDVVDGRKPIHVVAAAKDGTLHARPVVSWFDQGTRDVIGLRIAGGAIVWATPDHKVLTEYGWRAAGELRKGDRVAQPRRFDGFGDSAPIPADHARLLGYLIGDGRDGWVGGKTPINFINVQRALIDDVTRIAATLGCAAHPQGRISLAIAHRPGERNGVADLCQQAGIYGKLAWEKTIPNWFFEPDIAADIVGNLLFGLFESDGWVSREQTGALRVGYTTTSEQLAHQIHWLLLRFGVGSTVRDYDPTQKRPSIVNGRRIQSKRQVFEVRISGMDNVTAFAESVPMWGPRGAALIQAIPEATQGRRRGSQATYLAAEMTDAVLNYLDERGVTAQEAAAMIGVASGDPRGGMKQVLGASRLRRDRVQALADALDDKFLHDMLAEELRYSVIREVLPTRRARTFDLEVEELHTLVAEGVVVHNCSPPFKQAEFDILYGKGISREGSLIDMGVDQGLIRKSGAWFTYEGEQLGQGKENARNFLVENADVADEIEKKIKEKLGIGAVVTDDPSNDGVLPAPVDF
Mtb H37Rv: M. tuberculosis H37Rv growth inhibitors, H37Rv strain (AID 1626). M. tuberculosis H37Rv growth inhibition; higher % means a stronger effect. inhibition, % at 10 µM; hits with a dose series show IC50 in µM. 220,000 tested, 0.95% active;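 active = confirmed in a dose series; inconclusive = inhibition above 80% but not taken into the dose series; inactive = below 80% or under 30% at every dose of the series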;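 note: bacteria incubated seven days before Alamar blue readout; 0% = bacteria only wells and 100% = bacteria with antibiotic wells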
Arbovirus inh repeat: also measured in Arbovirus inh; calls as there; inhibition, %; measured here: 10K subset replicate screen; many hits read low in the repeat;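 first of two repeat runs on a subset; 0% = infected and 100% = uninfected wells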
* hit, by the source's call; u = inconclusive; x = not tested or not shown. An excerpt; the hit share may differ from the screen's.

SMILES | YopH PTP inh | Mtb betalactam | Arbovirus inh | RecA intein inh | Mtb H37Rv | others
CCN(CC)CCN1C(=O)c2ccccc2NC1c1ccc(C)cc1 (centres undefined) | 11.7 | u | 3.3 | -6.9 | 0.1%
Cc1ccc(C)c(NC(=O)c2cc3ccccc3o2)c1 | x | 92.8 | x | 1.9 | x
CC(C)NC(=S)Nc1ccc2cn[nH]c2c1 | -14.0 | -1.7 | 0.8 | 10.6 | -3.1%
CN1Cc2c(N3CCOCC3)nc(SCCC#N)c(C#N)c2CC1(C)C | x | -6.7 | x | -1.6 | -3.5%
CC(C)N(C=O)C1(C(=O)NC2CCCCC2)CCCCC1 | 44.2 | -15.2 | 6.2 | -0.8 | 1.3%
ON=C1/C(=N\O)CC2(C/C1=N/O)OCCO2 | 6.9 | 4.2 | 0.1 | 0.1 | 5.5%
COc1ccc(NC2CCCN(C(=O)CCCn3cncn3)C2)cc1OC (centres undefined) | x | 2.0 | x | -4.7 | x
CCc1nccn1CCC(=O)NC1CC(C)(C)Cc2c1cnn2-c1ccc(C)cc1 (centres undefined) | x | -7.2 | x | 0.6 | x
COc1ccc(CN=C2Nc3ccccc3CS2)cc1 | -0.6 | 11.2 | -2.2 | 4.4 | 1.4%
CCN(CC)C(c1ccc(F)cc1)c1nnnn1C1CCCCC1 (centres undefined) | -35.4 | -11.3 | 2.0 | -3.8 | -3.6%
Cc1ccc(-c2nc3cccnc3s2)cc1NC(=O)C1c2ccccc2Oc2ccccc21 | -20.4 | x | -9.1 | -4.8 | x
CCCC(NS(=O)(=O)c1ccc(Br)cc1)C(=O)O (centres undefined) | -39.4 | -17.7 | 13.2 | -1.5 | 0.7% | Arbovirus inh repeat=4.8
C/C(=N/NS(=O)(=O)c1ccccc1)c1c[nH]c2ccccc12 | x | -2.5 | x | -1.6 | x
Cc1cc(C(=O)N/N=C/c2ccc(O)c(O)c2O)c(C)n1-c1ccccc1 | x | x | -13.4 | 4.9 | 0.9%
Cc1cc(Oc2cc(NN3CCCCC3)c([N+](=O)[O-])cc2[N+](=O)[O-])ccc1[N+](=O)[O-] | x | -5.3 | x | 5.2 | x
Cc1cc([N+](=O)[O-])nn1Cc1ccc(C(=O)N/N=C/c2ccccc2)cc1 | -24.2 | -2.1 | -5.8 | -3.6 | -1.0%
CC(C)N1CCC(N2CCN(Cc3ccc(Oc4ncccn4)cc3)CC2CCO)CC1 (centres undefined) | x | 1.4 | x | 0.6 | 4.1%
Cc1[nH]c2ccccc2c1C1=NNC(=Nc2ccc(F)cc2)SC1 | -21.3 | 94.3 | -35.1 | 8.2 | 13.3µM*
COc1cccc(-c2nc(CS(=O)(=O)CC(=O)Nc3cccc(C)c3C)c(C)o2)c1 | -30.8 | -2.4 | 2.0 | -0.1 | 1.6%
Cc1nc(N)sc1N=Nc1ccccc1C(F)(F)F | x | 1.7 | x | -2.5 | x

Pulled one by one from the list above:
SMILES | YopH PTP inh | Mtb betalactam | Arbovirus inh | RecA intein inh | Mtb H37Rv | others
Cc1[nH]c2ccccc2c1C1=NNC(=Nc2ccc(F)cc2)SC1 | -21.3 | 94.3 | -35.1 | 8.2 | 13.3µM*
CCCC(NS(=O)(=O)c1ccc(Br)cc1)C(=O)O (centres undefined) | -39.4 | -17.7 | 13.2 | -1.5 | 0.7% | Arbovirus inh repeat=4.8
Cc1cc(C(=O)N/N=C/c2ccc(O)c(O)c2O)c(C)n1-c1ccccc1 | x | x | -13.4 | 4.9 | 0.9%
Cc1ccc(-c2nc3cccnc3s2)cc1NC(=O)C1c2ccccc2Oc2ccccc21 | -20.4 | x | -9.1 | -4.8 | x
Cc1cc([N+](=O)[O-])nn1Cc1ccc(C(=O)N/N=C/c2ccccc2)cc1 | -24.2 | -2.1 | -5.8 | -3.6 | -1.0%
Cc1cc(Oc2cc(NN3CCCCC3)c([N+](=O)[O-])cc2[N+](=O)[O-])ccc1[N+](=O)[O-] | x | -5.3 | x | 5.2 | x
CC(C)N1CCC(N2CCN(Cc3ccc(Oc4ncccn4)cc3)CC2CCO)CC1 (centres undefined) | x | 1.4 | x | 0.6 | 4.1%

Going on with the list.
SMILES | YopH PTP inh | Mtb betalactam | Arbovirus inh | RecA intein inh | Mtb H37Rv | others
CCCN1C(=O)C(O)(CC(=O)c2ccc3c(c2)OCCO3)c2ccccc21 (centres undefined) | -13.6 | 17.7 | -9.4 | 6.8 | 4.1%
Cc1ccc(/C=N/NC(=O)CNC(=O)c2ccc(S(=O)(=O)N(C)C)cc2)o1 | x | -2.2 | 4.9 | 1.1 | -6.9%
Cc1c(Cc2ccccc2)c(=O)oc2cc(OCc3ccc(C(=O)O)cc3)ccc12 | x | -3.3 | 6.8 | 0.0 | 10.9%
CC(=O)Nc1ccc(S(=O)(=O)N2CCc3cc4c(cc3C2)OCCCO4)cc1 | x | 2.0 | x | -4.7 | x
O=C(O)c1cccc2c1C(=O)c1ccccc1-2 | x | -3.4 | x | 0.2 | -6.9%
CCCCC(=O)N/N=C/c1ccc(Sc2cccc3cccnc23)o1 | -20.2 | -7.2 | -3.4 | -0.2 | 15.2%
CC(C)N(Cc1nc(-c2ccc(Cl)cc2)no1)C(=O)C12CC3CC(CC(C3)C1)C2 | -12.3 | -2.5 | 0.1 | 2.7 | 11.0%
C=CCn1c(C)cc(C(=O)CN2NS(=O)(=O)c3ccccc3C2=O)c1C | x | -0.8 | -5.8 | 0.6 | 3.5%
C=CCN1CC2(c3ccccc3)CN(CC=C)CC(c3ccccc3)(C1)C2=O | x | 1.6 | -1.2 | 6.3 | 1.1%
CN1CCN(C(=O)CCNC(=O)Cn2cnc3ccccc3c2=O)CC1 | x | -0.5 | x | -0.4 | x
O=C(Nc1cc(Cl)ccc1Cl)Nn1cnnc1 | x | -5.5 | x | 2.2 | x
CSc1ccccc1OCc1cc(C(=O)NCCCc2ccccc2)no1 | x | u | x | 1.3 | x
CCOc1ccccc1C(=O)NCC(=O)NCC1CCCCC1 | x | -1.9 | x | 2.3 | x
O=[N+]([O-])c1cnn(-c2nc(-c3cccs3)cc(C(F)(F)F)n2)c1 | x | 2.1 | 1.8 | -2.0 | 2.5%
Cc1ccc(N2CC(C(=O)NC3CCSC3=O)CC2=O)cc1 (centres undefined) | -37.5 | 0.8 | -0.4 | -0.6 | -10.1%
Cc1nc(NC(=O)c2cccs2)ccc1Br | x | -2.7 | -0.3 | 3.9 | 2.6%
CC(=O)N1CC(=O)Nc2ccc(F)cc2C1c1ccccc1 (centres undefined) | x | -0.3 | x | -0.1 | x
Cc1ccc(C)c(NC(=S)N(Cc2ccc(Cl)cc2)Cc2ccc(C(=O)O)cc2)c1 | x | 4.5 | 19.0 | 4.7 | 4.8%
Cn1c(SCC(=O)Nc2ccccc2O)nnc1-c1ccco1 | x | -12.6 | x | 0.9 | x
C/C(CCc1ccco1)=N/NC(=O)CCC(=O)Nc1cccc(Cl)c1 | -80.7 | -6.7 | -7.9 | 0.1 | x
O=S(=O)(NCc1ccccc1)c1cccc2cccnc12 | -12.2 | -1.0 | 5.2 | -5.3 | x
O=C(Nc1nc(=O)n(C(=O)c2cccc(C(F)(F)F)c2)s1)c1ccccc1 | x | 2.5 | x | 0.7 | -1.7%
Cc1nc2ccc(NC(=O)/C=C/C(=O)O)cc2nc1C | x | -0.7 | 4.9 | 1.0 | -0.2%
CCOc1cccc(CN2CCN(CCCc3ccccc3)C(CCO)C2)c1O (centres undefined) | x | 2.3 | x | 0.8 | x
CCOC(=O)N1CCN(C(=O)c2cc3c(-c4cccc(OC)c4)nn(C)c3s2)CC1 | x | -10.9 | x | 1.3 | x
COc1cc(-n2c(=O)c3ccccc3n(Cc3cccc(F)c3)c2=O)cc(OC)c1OC | x | 12.8 | 2.2 | 6.5 | -3.2%
CCCCN(Cc1cc2cc(C)ccc2[nH]c1=O)C(=O)c1ccccn1 | x | -2.0 | x | 3.0 | -2.4%
CC1(C)CC(=O)C=C(c2cccs2)C1 | x | 8.3 | x | -2.0 | -0.7%
Cc1ccc(Nc2nc(-c3sc(NC(=O)c4ccco4)nc3C)cs2)cc1 | -0.1 | 91.8 | -1.0 | 2.2 | 0.6%
COc1ccc2ccccc2c1CNCc1ccccn1 | -2.1 | 14.2 | -0.1 | 4.0 | 4.4%
CC12CN3CC(C)(CN(C1)C3c1cccs1)C2 (centres undefined) | -23.9 | 12.4 | 6.4 | 26.5 | -1.1%
Cc1nn(CC2CCCCC2)c(N)c1-c1ccccc1 | -31.4 | 10.9 | -7.4 | 1.1 | -8.2%
O=C(COc1ccc(F)c(Cl)c1)N1CCN(c2ccccn2)CC1 | x | -11.4 | x | 0.2 | x
CC(=O)Nc1ccc(S(=O)(=O)c2ccc([N+](=O)[O-])cc2)cc1 | x | -3.8 | x | -0.1 | x
CCCOc1cccc(C(=O)Nc2cccnc2)c1 | -19.5 | -5.9 | 3.7 | -2.4 | 2.4% | Arbovirus inh repeat=3.2
O=C(Nc1ccc(S(=O)(=O)Nc2ccccn2)cc1)c1cccc([N+](=O)[O-])c1 | x | 4.2 | x | -3.4 | x
COc1ccc(N2C(=O)CC(N(Cc3ccc(S(N)(=O)=O)cc3)C(C)=O)C2=O)cc1 (centres undefined) | -15.2 | 1.7 | 9.4 | -0.1 | -5.8%
COc1cc2c(cc1OC)C1=C(C#N)CC/C(=N\S(=O)(=O)c3cccc(Cl)c3)N1CC2 | -2.6 | -21.0 | 1.4 | -8.5 | -0.6%
COCCCn1cnnc1SCC(=O)Nc1ccc(S(=O)(=O)N2CCCC2)cc1 | -40.4 | -3.2 | 2.6 | 0.9 | 1.1%
CCCn1c2c(c(O)c(C(=O)Nc3nc4ccccc4s3)c1=O)CCCC2 | x | -5.3 | 43.3* | -3.4 | 1.0%
CN1CCN(C2=Cc3cc(Cl)ccc3Sc3cc(F)ccc32)CC1 | -11.2 | 99.8 | -36.8 | 18.1 | u
CC1(OC(=O)CCc2ccccc2)C(=O)C=C2C=C(c3ccc(C#N)cc3)N(Cc3ccccc3)C=C2C1=O (centres undefined) | x | -2.1 | x | -11.6 | 6.7%
Cc1cccc(C(=O)NCCC(=O)Nc2ccc(C)c(F)c2)c1 | x | 6.6 | x | 0.5 | x
Cc1ccc(N(CC(O)CN2CCCCC2)S(=O)(=O)c2ccccc2)cc1 (centres undefined) | x | -8.1 | x | 0.6 | x
CCOc1ccc(C(=O)O)cc1OC | -40.8 | 3.8 | 0.3 | -1.3 | -6.0%
CC1CCC2C(=O)N(c3ccc(C(=O)Oc4cccc5cccnc45)cc3)C(=O)C2C1 (centres undefined) | -22.4 | 100.1 | 17.0 | -4.2 | -8.2%
Cc1csc(NC(=O)c2c(-c3c(Cl)cccc3Cl)noc2C)n1 | -12.2 | 10.8 | -6.3 | 1.5 | 11.8%
O=C(COc1ccccc1[N+](=O)[O-])N(Cc1ccccc1)c1ccccn1 | x | 3.5 | 0.6 | 1.7 | 11.3%
COc1cc(/C=C2\C(=N)N3N=C(S(C)(=O)=O)SC3=NC2=O)cc(OC)c1OCCOc1cccc(C)c1 | x | -5.7 | x | 17.5 | x
CC/C=C/C(=O)N1CC2(CC(c3cccc(NC(=O)COc4ccc(Cl)cc4)c3)=NO2)C[C@H]1C(N)=O (some centres undefined) | x | 1.1 | x | 4.7 | -2.1%

Continuation.
SMILES | YopH PTP inh | Mtb betalactam | Arbovirus inh | RecA intein inh | Mtb H37Rv | others
CCN1CCN(c2cc(C)c3cc(NC(=O)c4cccnc4Cl)ccc3n2)CC1 | 2.2 | 11.7 | -12.0 | -0.7 | -3.0%
CN1CCN(C(=O)c2ccccc2-c2nc(-c3ccccc3)no2)CC1 | -29.5 | -0.6 | -0.6 | 0.9 | -1.9%
O=C(CCCN1C(=O)/C(=C/c2ccccc2Cl)SC1=S)NNC(=O)c1ccc(Cl)cc1Cl | x | 4.7 | x | -0.9 | 2.7%
Cc1ccc2nc(SCC(=O)OCc3ccccc3)nc(=O)n2c1 | x | -2.5 | x | 1.0 | x
Cc1c(C)c2ccc(OC(C)C(=O)NCCN3CCOCC3)c(C)c2oc1=O (centres undefined) | x | 5.2 | x | -0.7 | x
Nc1sc(-c2ccccc2)cc1C(=O)N/N=C/c1ccc(Cl)cc1 | x | 70.1 | x | 15.4 | 17.4%
COc1ccc2c(CCNC(=O)Nc3ccccc3)c[nH]c2c1 | x | -2.7 | -7.8 | -1.8 | 9.9%
Cc1nn(Cc2ccc(C(=O)N/N=C/c3ccncc3)o2)c(C)c1Cl | x | 8.5 | x | 1.1 | x
Cc1nc(NS(=O)(=O)c2ccccc2)sc1NC(=O)OCCN(C)C | -24.2 | -11.7 | 1.6 | -20.4 | 0.9%
CC(=O)c1c(N2CCOCC2)nc(=S)n(-c2ccc([N+](=O)[O-])cc2)c1C | -1.7 | -18.4 | 17.6 | -3.5 | x
